Screens deposited in PubChem BioAssay by Fisher Drug Discovery Resource Center.
NPYLR7 agonist: activates Aedes aegypti NPYLR7 receptor; AID 1259423; HEK293T NPYLR7/Galpha15, GCaMP6s calcium fluorescence; actives 0.15% (n = 270,000); activation, % at 10 µM; in the data active = activation above about 40%;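 also: 0% = vehicle and 100% = reference agonist at the receptor; some compounds past the cut are filed as inactive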
NPYLR7 agonist max-min: also measured in NPYLR7 agonist; calls as there; activation, %; measured here: Max-Min RFU normalised activation; some inactives read as strong as hits;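 span of the calcium signal over five minutes; 0% = vehicle and 100% = native peptide agonist; compound fluorescence can raise it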
Starred values were filed as active, the others as inactive; & = joins results of further samples. Only part of the results is shown. The share of hits here may be higher or lower than overall.

Fields – NPYLR7 agonist max-min	NPYLR7 agonist
- COCCN(Cc1nc(C(=O)N2CCN(c3ccccc3F)CC2)cs1)C(=O)Nc1cccc(Cl)c1
 : 14	18
- O=C(OCc1ccc([N+](=O)[O-])cc1)C1CCCN1S(=O)(=O)c1ccc(Cl)cc1 (centres undefined)
 : 12	-6
- CSCCc1nc(SCC(=O)Nc2nnc(C)s2)[nH]c1C
 : 3	4
- COc1ccc(NC(=O)CCC2CCCN(C(=O)Cc3ccccc3F)C2)c(C)c1 (centres undefined)
 : -1	6
- COc1ccc(N(C)C(=O)c2ccc(-n3cnnc3)cc2)cc1Cl
 : -7	-5
- c1coc(-c2cc(C3CCN(Cc4nc(-c5ccco5)no4)CC3)[nH]n2)c1
 : 3	21
- O=C(NCc1ccc(F)cc1)c1ccc2nc(-c3ccco3)[nH]c2c1
 : 8	13
- CNC(=O)c1ccc(NCC(=O)NCc2cccc(C)c2)c(C)c1
 : 6	9
- Cc1cc(NC(=O)c2cc(C)on2)n(-c2nc3ccccc3s2)n1
 : -14	-8
- CCOCC(=O)NCc1ccc(C(=O)O)cc1
 : 10	12
- O=C(C1Cc2cc(Cl)ccc2O1)N1CCN(c2cnccn2)CC1 (centres undefined)
 : -6	-6
- O=C(NCc1ccc2c(c1)OCO2)c1csc(CSc2nnc(-c3ccccc3Cl)n2-c2ccccc2F)n1
 : 11	-2
- Cn1ccc(NC(C(=O)Nc2ccc(F)cc2)c2ccccc2)n1 (centres undefined)
 : 5	8
- O=C(NC1CCCCCC1)c1cnc2sccn2c1=O
 : -3	-3
- CC(C)c1ccc(N2CCN(CC(=O)NCCOc3ccc(F)cc3)C2=O)cc1
 : 8	11
- CN(Cc1cn[nH]c1C(=O)O)C1Cc2ccccc2C1
 : 15	26
- CC(C)N1CCC(NCc2cccnc2N(C)Cc2ccccc2)CC1
 : -5	2
- Cc1cc(C)cc(OCC2CO2)c1 (centres undefined)
 : 16	23
- COCCN1C[C@@H]2C[C@@H](C(N)=O)N(C(=O)c3ccc4c(c3)OCCCO4)c3cccc(c32)C1=O
 : 15	5
- COc1ccc2ccccc2c1/C=C1\SC(=S)NC1=O
 : -3	22
- CCOc1ccc(C(=O)Nc2c3c(nn2C(C)(C)C)CSC3)cc1
 : -1	0
- COc1cc(CNCc2ccc(-n3nc(C)cc3C)nc2)cc2c1OCO2
 : -1	-1
- CCC(O)CN(Cc1ccccc1)Cc1cccc(OC)c1OC (centres undefined)
 : 26	16
- Cn1cnnc1Sc1ccc(CN2C[C@@H]3[C@@H]4CC[C@@H](C4)[C@@H]3C2)o1
 : 3	4
- CC1(C(=O)NCC2CCCCC2)CCN1Cc1csc2ccccc12 (centres undefined)
 : 9	13
- CC(=O)C(C)n1c(=O)c2c(nc3n(C(C)c4ccccc4)c(C)cn23)n(C)c1=O (centres undefined)
 : 4	7
- CC(=O)C1=C(C)Nc2ncnn2C1c1ccc(C)o1 (centres undefined)
 : -2	-2
- Cc1noc(C)c1CC(=O)Nc1cc(Cl)ccc1Sc1nccn1C
 : -4	-3
- O=C1C(C(c2ccccc2F)N2CCOCC2)Sc2nc(-c3ccco3)nn21 (centres undefined)
 : 2	5
- O=C(C=Cc1cccs1)NNC(=O)CC12CC3CC(CC(C3)C1)C2
 : 1	5

The list goes on, overlapping the part above by two compounds.
Fields – NPYLR7 agonist max-min	NPYLR7 agonist
- O=C1C(C(c2ccccc2F)N2CCOCC2)Sc2nc(-c3ccco3)nn21 (centres undefined)
 : 2	5
- O=C(C=Cc1cccs1)NNC(=O)CC12CC3CC(CC(C3)C1)C2
 : 1	5
- COc1ccc(-n2c(SCc3ccc(C(=O)NCc4ccncc4)cc3)nnc2-c2cccc(OC)c2)cc1
 : 11	0
- O=C(Cn1ncn2cccc2c1=O)N1CCCC1
 : 4	7
- Cc1cnc(C(=O)N2CCCC(Cn3cc(C4CCCC4)nn3)C2)cn1 (centres undefined)
 : 12	24
- Cc1ccccc1OCC(=O)NCCCS(=O)(=O)N1CCc2ccccc2C1
 : -11	-9
- COc1cc(Br)c(CNC(C)c2nnc3n2CCC3)cc1OC (centres undefined)
 : -5	0
- CCCCNC(=O)c1csc(CN(CCCC)C(=O)Nc2ccc(Cl)cc2)n1
 : -13	-17
- O=C(c1ccccc1)c1ccc2c(c1)N=C1CC(c3ccccc3)CC(=O)C1C(c1cccs1)N2 (centres undefined)
 : -10	-3
- C=CCNS(=O)(=O)c1ccc2nc(NC(C)=O)sc2c1
 : 8	5
- O=C1CC(c2ccccc2)CC2=Nc3ccccc3NC(c3cccc(Oc4ccccc4)c3)C12 (centres undefined)
 : -15	-6
- O=C(NC(C(=O)N1CCOCC1)C1CCN(C(=O)Cc2ccccc2)CC1)c1ccc(F)cc1 (centres undefined)
 : 10	3
- CC(C)CCc1nc(N2CCCN(C(=O)Nc3ccc(Cl)cc3)CC2)c2cnn(-c3cccc(Cl)c3)c2n1
 : 21	18
- CCN(C(=O)c1ccccc1N1CCC(NC(=O)Cc2ccccc2)CC1)C(C)C
 : -3	-3
- CCCc1cc(C(=O)N2CCCC(COc3ccc(C)cc3)C2)no1 (centres undefined)
 : -3	-1
- Cc1ccc2[nH]nc(C(=O)N3CCCC(N)CC3)c2c1 (centres undefined)
 : -2	2
- CCCc1noc(-c2ccc(C3CCC(CCC)CC3)cc2)n1 (centres undefined)
 : 8	7
- C/C(=C\C(=O)OCCCCCCCCC(=O)O)C[C@@H]1OC[C@H](C[C@@H]2O[C@H]2[C@@H](C)[C@H](C)O)[C@@H](O)[C@H]1O
 : -9	-3
- CN(CCCc1ccccc1)C(=O)CC1(O)CCCC1
 : -2	1
- CC(C)C(=O)Nc1cc(S(C)(=O)=O)ccc1Cl
 : -2	0
- O=C(NCCCCN1CCOC(c2ccccc2)C1)C(=O)Nc1ccc(C(F)(F)F)cc1 (centres undefined)
 : -10	-10
- Cc1n[nH]c(=S)n1CCS(C)(=O)=O
 : 4	3
- CN(Cc1ncnn1C)C(=O)NC1CCSc2c(F)cccc21 (centres undefined)
 : -21	-23
- OC1(Cc2cc(-c3ccccc3)no2)CCN(Cc2ccc(C3CCCCO3)o2)CC1 (centres undefined)
 : -5	-4
- Cc1c(C(=O)NCc2cccc([N+](=O)[O-])c2)sc(=O)n1Cc1ccncc1
 : 8	12
- COc1ccccc1N1CCN(Cc2cc(=O)c(OCC(=O)NC(C)C)co2)CC1
 : 50	-2
- COCCN(CCC(=O)N1CCN(c2ccccc2F)CC1)c1nc(-c2ccco2)nc2cc(Cl)ccc12
 : 24	20
- Cc1ccccc1C(=O)NCCN1CCn2cc(OCc3ccc(F)cc3)c(=O)cc2C1=O
 : 3	10
- CCOc1ccc(-c2ccnc(N3CCN(S(=O)(=O)c4ccc(F)c(Cl)c4)CC3)n2)cc1
 : -7	-6
- N#CC1C(=N)C(C#N)(C#N)C(c2cccs2)C2CSCC=C12 (centres undefined)
 : 11	17
- O=C(NCCc1cc(F)cc2c1OCOC2)c1cc(-c2cccs2)on1
 : 4	7
- COC(=O)c1ccccc1S(=O)(=O)N1CCC2(CC1)C(=O)NCCN2C
 : -5	5

As entered above:
NPYLR7 agonist max-min with Cc1ccccc1C(=O)NCCN1CCn2cc(OCc3ccc(F)cc3)c(=O)cc2C1=O → 3
NPYLR7 agonist with CC(C)C(=O)Nc1cc(S(C)(=O)=O)ccc1Cl → 0

Other entries follow.
Fields – NPYLR7 agonist max-min	NPYLR7 agonist
- CC(C)N(Cc1ccccc1)C(=O)CSc1nccn1C
 : -1	0
- O=C(OCc1nc(C(=O)NC(c2ccccc2)c2ccccn2)cs1)c1ccccc1 (centres undefined)
 : 1	0
- CCCNC(=O)N1CCN(c2cc(Cl)nc(SCC(=O)NC3CC3)n2)CC1C (centres undefined)
 : 16	15
- Cc1cc(C)cc(C(=O)NCC(=O)OC(C)C#N)c1 (centres undefined)
 : -1	0
- CCC(C)(C)NC(=O)c1cn(-c2cccc(Br)c2)nn1
 : 1	-3
- COc1ccc(OCC(=O)Nc2ccccc2C(=O)n2cnc3ccccc32)cc1
 : 1	2
- CSC1CCCC1N(C)C(=O)c1ccc(-c2n[nH]c(C)n2)cc1 (centres undefined)
 : -22	-22
- CCc1cc(-c2n[nH]c(C)c2-c2ccc3c(c2)OCCO3)c(O)cc1OC
 : 0	1
- Cc1cc(C(=O)N2CCCC(N(C)C)CC2)sc1C (centres undefined)
 : 4	7
- Cc1nn(C2CCS(=O)(=O)C2)c2nc(-c3cccs3)cc(C(=O)NC3CCCCCC3)c12 (centres undefined)
 : 6	2
- O=C(NCC1CCCN(C(=O)C2=CCCC2)C1)c1ccc(-c2ccccc2)cc1 (centres undefined)
 : -3&7	1&8
- O=C(COC(=O)CN1CCCCCC1=O)Nc1c(Cl)cc(Cl)cc1Cl
 : 9	11
- COC(=O)Nc1cc(NC(=O)CCOc2ccccc2)ccc1F
 : 6	9
- Nc1nc(Cl)cc(=O)n1Cc1ccc(Cl)cc1
 : -4	1
- CC1(C(=O)Nc2ccncc2)CCN1Cc1cccc2c1OCO2 (centres undefined)
 : -8	-6
- CC(C)(Cc1c[nH]c2ccccc12)NC(=O)c1ccc(SC(F)(F)F)cc1
 : -13	-8
- CCOC(=O)c1sc(NC(=O)C(C)Oc2ccc(OC)cc2)nc1C (centres undefined)
 : 22	2
- O=C(c1ccc(CO)o1)N1CCN(C2Cc3ccccc3C2)CC1
 : -6	0
- O=c1oc2ccc(Br)cc2cc1-c1ccc2c(c1)OCO2
 : 0	4
- O=C(NC(Cc1ccccc1)c1nnc(SCc2ccc(F)cc2)n1-c1ccc(Cl)cc1Cl)c1ccc(Cl)cc1Cl (centres undefined)
 : 7	1
- CNC(=O)C(C)SCc1csc(-c2cccs2)n1 (centres undefined)
 : 7	17
- COc1ccc(S(=O)(=O)N2CCCC3(CCNCC3)CC2)cc1OC
 : -20	-20
- O=C(O)c1cc2n(n1)CCCN(C(=O)CCc1ccc3c(c1)OCO3)C2
 : -9	-6
- O=C(NCc1cccc(F)c1)N1CCCCC1CN1CCOCC1 (centres undefined)
 : 11	17
- CN(C)S(=O)(=O)c1ccc2c(c1)nc(CCC(=O)N1CCc3ccccc31)n2C
 : 6	2
- COCC(=O)N1CCCC(C(=O)NCc2cc(C)ccc2C)C1 (centres undefined)
 : -3	0
- O=[N+]([O-])c1cc2c(c(CSc3nnc(-c4ccc(F)cc4)c4ccccc34)c1)OCOC2
 : 10	3
- CN(C)CCN(C(=O)c1ccc(Br)s1)c1nc2c(F)cc(F)cc2s1
 : -7	-3
- CC(Sc1nc2ccccc2[nH]1)C(=O)NNC(=O)c1ccncc1 (centres undefined)
 : -6	0
- Clc1ccc(Cl)c(SCCSc2nnc(-c3ccc4c(c3)OCO4)o2)c1
 : 0	1

Profiles, looked up by structure:
CCc1cc(-c2n[nH]c(C)c2-c2ccc3c(c2)OCCO3)c(O)cc1OC across the screens: NPYLR7 agonist max-min: 0; NPYLR7 agonist: 1
CCC(C)(C)NC(=O)c1cn(-c2cccc(Br)c2)nn1 across the screens: NPYLR7 agonist max-min: 1; NPYLR7 agonist: -3
O=C(COC(=O)CN1CCCCCC1=O)Nc1c(Cl)cc(Cl)cc1Cl across the screens: NPYLR7 agonist max-min: 9; NPYLR7 agonist: 11

Additional structures.
Fields – NPYLR7 agonist max-min	NPYLR7 agonist
- O=C(CN1CCC(C(=O)N2CCOCC2)CC1)Nc1ccccc1SC(F)F
 : 7	15
- CCOC(=O)N1CCN(Cc2nc3c(c(=O)n(C)c(=O)n3C)n2Cc2cc(C)ccc2C)CC1
 : 7	6
- CO[C@@H]1C[C@@H]2CC(C)(C)OC[C@@]2(O)[C@H]1N(C)Cc1ccccc1
 : 10	1
- COc1ccc(-c2cc(COC(=O)C3CCCC3)no2)cc1OC
 : -5	-3
- COc1coc(C(=O)N2CCN(Cc3cccc(F)c3)CC2)cc1=O
 : 16	19
- Cc1sc2ncnc(NC3CCCCC3)c2c1C
 : -2	1
- Cn1cc(CN2CCN(C(=O)c3ncn[nH]3)CC2)c(-c2ccc(Oc3ccccc3)cc2)n1
 : 0	2
- Nc1nc(Cl)cc(Oc2ccccc2F)n1
 : -1	1
- Cc1[nH]nc2c1C(c1cccnc1)C(C#N)C(=N)O2 (centres undefined)
 : -5	1
- Cc1cc(F)ccc1NC(=O)Cn1ccn2nc(-c3ccc(Cl)cc3)cc2c1=O
 : 5	5
- Cc1nccc(CNC(=O)N2CCN(Cc3ccccc3)C[C@H]2C)n1
 : 3	4
- CC(C)NC(=O)NCCc1ccc(NC(=O)C(C)Oc2ccccc2)cc1 (centres undefined)
 : -10	-5
- Cc1ccc(-c2[nH]ncc2CNC(C)c2ccc3c(c2)OCCO3)cc1 (centres undefined)
 : -4	-2
- O=C1NC(=Nc2ccccc2Cl)S/C1=C/c1cccc(Cl)c1
 : -7	-3
- O=C(CN1CCSC1=O)Nc1ccc(Cl)cc1Cl
 : 7	9
- COc1ccc(-c2nn(CN(C)Cc3nc4ccccc4s3)c(=S)n2C(C)C)cc1
 : -6	-5
- Cc1cc(C)c(C(=O)N(CC2CCCO2)C2CCSC2)[nH]1 (centres undefined)
 : 1	0
- CCCn1nccc1C(=O)N1CCN2CCN(C)CC2C1 (centres undefined)
 : -3	-3
- COC(=O)c1c(NC(=O)CCl)sc2c1CCC(C)C2 (centres undefined)
 : -8	-5
- CCOc1ccc(-n2cc(-c3ccccc3)c3c(=O)[nH]cnc32)cc1
 : -14	-8
- CCOC(=O)N1CCN(C(=S)NC2CC3CCC2C3)CC1 (centres undefined)
 : 30	-1
- Cc1c(CN2CCCC(c3ccn[nH]3)C2)[nH]c2ccc(F)cc12 (centres undefined)
 : -5	-3
- Cc1ccc(-n2c(SCc3ccc(F)cc3)nnc2C(Cc2ccccc2)NC(=O)COCc2ccccc2)cc1 (centres undefined)
 : 16	18
- Cc1ccccc1N1C(=O)/C(=C/c2ccc(-c3ccc(Cl)c(Cl)c3)o2)C=C1c1ccccc1
 : 5	-1
- CCC(C)N(Cc1ccc(OS(=O)(=O)CC)cc1)C(=O)Nc1cccc(Br)c1 (centres undefined)
 : 6	-1
